PINK1 expr mod – A Quantitative High throughput Screen to Identify Chemical Modulators of PINK1 Expression; PINK1 immunofluorescence, high-content cytometry, 24 h; Potency, µM (doses to about 76.6 µM), inactives show at the top dose activation (PINK1 increase), most hits filed as activators; 410,000 compounds, 0.2% hits; active = well fitted activation curve with a large enough effect; inconclusive = small, poorly fitted or top-dose-only effect; inactive = flat fitted curve, though single readings scatter; cell line not stated here;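 further: % of control where 0% means no effect; nearly all actives have a fitted effect of over 65% in size; a mitochondrial uncoupler was the plate control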
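Fluorescence from anti-PINK1 antibody, together with nuclear and cell stains, was scanned on a laser-scanning cytometer. Before staining, stable-line cells were incubated 24 hours with compounds at 5 concentrations; primary antibody 12 h at 10 degrees C.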
The depositor's hits bear a star; ? = inconclusive. Potency means the concentration at half of the fitted maximal effect. Some of the compounds tested; the hit share may differ from the screen's.

SMILES	PINK1 expr mod
COc1ccccc1N1CCN(S(=O)(=O)c2cc(C(=O)Nc3ccc(Oc4ccccc4)cc3)ccc2F)CC1	-0.1%
CCOC(=O)CCc1c(C)nc2cc(-c3cc(OC)cc(OC)c3)[nH]n2c1=O	8.7%
CC(C)CCN(C(=O)Nc1ccc(Cl)c(Cl)c1)C1CCN(C(C)C)CC1	2.6%
CCOc1ccc(NC(=O)Nc2nnc(N3CCCCC3C)s2)cc1 (stereo unspecified)	1.5%
CC(C)CCNC(=O)Cn1cc(S(=O)(=O)Cc2ccc(F)cc2)c2ccccc21	-1.0%
COC(=O)c1c(SCC(=O)Nc2cccc(Cl)c2C)[nH]c2ccccc2c1=O	1.4%
COc1ccccc1-c1ccnc(-n2ncc(C(=O)NC(c3cccnc3)C(F)(F)F)c2C)n1 (stereo unspecified)	6.2%
Cc1ccc(Cn2cc(CCC(=O)NC3CCC(C)CC3)c3ccccc32)cc1 (stereo unspecified)	1.7%
COCCCNC(=O)c1ccc(Cn2c(=O)c3ccccc3n(Cc3ccc(Cl)cc3)c2=O)cc1	-0.9%
COc1ccc(NC(=O)c2cnc3cc(C)ccn3c2=O)c(OC)c1	1.6%
COC(=O)c1c(SC)nc2ccccc2c1OCc1ccccc1C	5.1%
CCC(C)NC(=O)Cn1c(=O)n(CCCCCC(=O)NCc2ccccc2Cl)c(=O)c2sccc21 (stereo unspecified)	-0.9%
CCCCCCSc1nc(N)c2c3c(sc2n1)CCCC3C (stereo unspecified)	-0.9%
CC(=O)c1ccc(NC(=O)CCSc2nc(-c3ccco3)cc(C(F)(F)F)n2)cc1	6.2%
Cc1cccc(N2CCN(c3nc4ccccc4c4nc(-c5cccnc5)nn34)CC2)c1C	1.4%
CCOC(=O)c1c(NC(=O)c2cc(CC)on2)sc(C)c1C	1.6%
Cc1ccc(CNC(=O)CSCc2nc(-c3cccc(C)c3)oc2C)cc1	-0.8%
COc1ccc(OC)c(C2NC(=O)NC(C)=C2C(=O)Nc2cc(C)cc(C)c2)c1 (stereo unspecified)	1.2%
CCOC(=O)c1cc(C)n(CC2CCC(C(=O)Nc3cccc(C(C)=O)c3)CC2)c1C (stereo unspecified)	0.6%
CC(=O)c1ccc(F)c(-c2cc(C)cc3c2OC(CNC(=O)Cn2nc(C)nc2C)C3)c1 (stereo unspecified)	0.0%
O=C(Nc1ccc(OC(F)(F)F)cc1)C(Cc1ccccc1)NS(=O)(=O)c1cccc2nsnc12 (stereo unspecified)	5.8%
CCN(CC)CCNC(=O)c1sc2nc(C)cc(C)c2c1-n1cccc1	-1.2%
CCc1ccccc1NC(=O)Cn1nnc(C(=O)Nc2ccc(C)c(F)c2)c1N	?
Nc1ncc(S(=O)(=O)NCc2cccc(Cl)c2)cn1	4.5%
Cn1c(=O)c2c(SCC(=O)NCc3ccco3)nc(-c3ccccc3F)nc2n(C)c1=O	0.5%
CCOC(=O)c1ccc(NC(=O)CSc2cn(CC(=O)N3CCCC3)c3ccccc23)cc1	0.0%
Cc1ccc(/C=C(\C#N)c2nc3ccccc3c(=O)[nH]2)cc1	0.6%
O=C(NCC1CCN(Cc2ccc(F)cc2)CC1)c1cc2ccc3cccnc3c2[nH]1	0.1%
CC(=O)c1cc2c(cc1NC(=O)c1cnn(-c3ccc(C)cc3)c1-n1cccc1)OCO2	2.1%
O=C(/C=C/c1cn(CC(O)CN2CCCCCC2)c2ccccc12)c1ccccc1 (stereo unspecified)	-4.6%
CN(C)c1ccc(-n2c(CCC(=O)O)ccc2-c2ccccc2)cc1	-0.3%
COc1ccc(N(Cc2cc3cc(OC)ccc3[nH]c2=O)C(=O)c2cccc(Cl)c2)cc1	-1.0%
Cc1ccc(OCC(=O)Nc2ccc(S(=O)(=O)Nc3ncccn3)cc2)c(C(C)(C)C)c1	0.5%
COc1ccccc1N1CCN(C(=O)Nc2cn(CC(C)C)c(=O)c3ccccc23)CC1	-3.8%
COc1ccc(Nc2nc3c(S(=O)(=O)c4ccc(C)cc4)nnn3c3ccsc23)cc1Cl	1.5%
CCC(=O)N1CCc2cc(Br)cc(S(=O)(=O)N3CCCC(C(=O)Nc4cccc(C)c4C)C3)c21 (stereo unspecified)	0.9%
CCOC(=O)c1cccc(NC(=O)C2CCCN(S(=O)(=O)c3ccc4c(c3)oc(=O)n4C)C2)c1 (stereo unspecified)	2.7%
COc1ccc(NC(=O)C2=C(C)Nc3nc(SCc4ccccc4C)nn3C2c2cc(OC)c(O)c(OC)c2)cc1 (stereo unspecified)	-0.6%
Cc1ccccc1Nc1cc(C(=O)NCCc2ccc(Cl)cc2)c2ccccc2n1	4.2%
CCOc1ccc(C(=O)Nc2ccc3nc(SCC(=O)N4CCOCC4)sc3c2)cc1	-0.5%
Cc1ccc2c(=O)cc(C(=O)Nc3c(C)cccc3C)oc2c1	1.4%
COc1ccccc1-c1nnc2n(CCc3ccccc3)c(=O)c3ccccc3n12	1.4%
Cc1nc2cc(-c3ccc(Cl)cc3)nn2c(C)c1CCC(=O)N1CCN(c2ccccc2)CC1	2.8%
CCCCCOC(=O)CSc1ncnc2c1sc1nc(N3CCOCC3)c3c(c12)CCCC3	-4.7%
Cc1ccc(NC(=O)N2CCc3cc(S(=O)(=O)N4CCC(C)CC4)ccc32)cc1	-0.6%

Seven entries out of the list, sorted by formula weight, rising:
SMILES	PINK1 expr mod
CN(C)c1ccc(-n2c(CCC(=O)O)ccc2-c2ccccc2)cc1	-0.3%
Cc1ccc(NC(=O)N2CCc3cc(S(=O)(=O)N4CCC(C)CC4)ccc32)cc1	-0.6%
Cc1ccccc1Nc1cc(C(=O)NCCc2ccc(Cl)cc2)c2ccccc2n1	4.2%
Cc1nc2cc(-c3ccc(Cl)cc3)nn2c(C)c1CCC(=O)N1CCN(c2ccccc2)CC1	2.8%
CCOC(=O)c1cccc(NC(=O)C2CCCN(S(=O)(=O)c3ccc4c(c3)oc(=O)n4C)C2)c1 (stereo unspecified)	2.7%
CCC(=O)N1CCc2cc(Br)cc(S(=O)(=O)N3CCCC(C(=O)Nc4cccc(C)c4C)C3)c21 (stereo unspecified)	0.9%
COc1ccc(NC(=O)C2=C(C)Nc3nc(SCc4ccccc4C)nn3C2c2cc(OC)c(O)c(OC)c2)cc1 (stereo unspecified)	-0.6%

Retrieved one by one from the entries so far, 4 records:
SMILES	PINK1 expr mod
CN(C)c1ccc(-n2c(CCC(=O)O)ccc2-c2ccccc2)cc1	-0.3%
Cc1ccc2c(=O)cc(C(=O)Nc3c(C)cccc3C)oc2c1	1.4%
COc1ccc(NC(=O)C2=C(C)Nc3nc(SCc4ccccc4C)nn3C2c2cc(OC)c(O)c(OC)c2)cc1 (stereo unspecified)	-0.6%
COc1ccc(Nc2nc3c(S(=O)(=O)c4ccc(C)cc4)nnn3c3ccsc23)cc1Cl	1.5%

(further entries)
SMILES	PINK1 expr mod
CCOC(=O)c1ccc(NC(=O)c2cc3c([nH]c2=O)CC(c2ccccc2)CC3=O)cc1 (stereo unspecified)	1.4%
CCn1cc2nc(SCc3cccc(C(F)(F)F)c3)n(Cc3ccc(OC)cc3)c(=O)c2n1	1.4%
N#Cc1cccc(S(=O)(=O)N2CCN(S(=O)(=O)c3ccc4c(c3)OCCO4)CC2)c1	0.3%
Cc1cc(NC(=O)CSc2nc(-c3ccccc3C)nc3c2c(=O)n(C)c(=O)n3C)no1	2.5%
COc1ccc(CCNC(=O)c2cn(C)c3ccc(S(=O)(=O)N(C)C4CCCCC4)cc3c2=O)cc1OC	0.6%
CN(C)c1cccc(C(=O)Nc2nc3ccc(S(=O)(=O)NC(C)(C)C)cc3s2)c1	4.7%
Cc1c2cnn(CC(=O)NCc3ccc(Cl)cc3)c(=O)c2c(C)n1Cc1ccc(F)cc1	6.0%
COC(=O)c1cc(NC(=O)[C@H](CCS(C)(=O)=O)N2Cc3ccccc3C2=O)cc(C(=O)OC)c1	1.9%
COc1ccc(C(c2c(O)cc(C)n(Cc3ccco3)c2=O)N2CCN(c3ccccc3)CC2)cc1 (stereo unspecified)	0.7%
O=C(NCc1ccc(Cl)cc1)c1ccc2c(c1)nnn2C1CCCC1	1.5%
CCOc1ccc(NS(=O)(=O)c2ccc3c(c2)NC(=O)CCS3)cc1	0.2%
COc1ccc(Cn2ccc3nc(C)c(C(=O)NCc4ccc(F)cc4)cc3c2=O)cc1	5.6%
COC(=O)c1ccccc1NC(=O)c1noc2c1CSc1ccccc1-2	1.7%
CC(C)c1c(C(=O)NCCN2CCOCC2)cnn1-c1nccc(-c2cccs2)n1	0.3%
CCOc1ccc(NC(=O)c2nn(C)c3c2CS(=O)(=O)c2ccccc2-3)cc1	-0.5%
CCOC(=O)c1[nH]c(C)c(C(=O)NCc2ccccc2Cl)c1C	0.9%
COc1ccc(-c2c(C)c3ccc(O)c(CN4CCCC(C)C4)c3oc2=O)cc1OC (stereo unspecified)	0.6%
Cc1ccc(N2C(=O)CC(c3ccccc3F)C3=C2COC3=O)cc1Cl (stereo unspecified)	0.3%
COc1ccc(Nc2nc(N3CCCC3)nc(N3CCOCC3)n2)cc1	0.9%
CC(=O)Nc1ccc(S(=O)(=O)NC2(C(F)(F)F)NC(=O)N(CCc3ccc(F)cc3)C2=O)cc1 (stereo unspecified)	0.5%
CN1CCc2nc3sc(C(=O)Nc4cccc(C#N)c4)c(N)c3cc2C1	13%
COCCNC(=O)CSc1nnc(NC(=O)Nc2ccc(C)cc2)s1	0.5%
CC1CCN(S(=O)(=O)c2ccc3[nH]ccc3c2)CC1	-0.4%
CC(C)(C)c1ccc(C(=O)NNc2ncnc3c2cnn3-c2ccc(Cl)cc2)cc1	4.7%
COc1ccc(-n2ccnc(NCCc3ccc(S(N)(=O)=O)cc3)c2=O)cc1Cl	-0.4%
Cc1ccccc1OCC(=O)Nc1nnc(SCc2cc(=O)n3cc(Cl)ccc3n2)s1	?
CCOc1ccc(/C=C/c2nc(C#N)c(Nc3ccc(OC)cc3)o2)cc1	1.1%
COc1ccc(NC(=O)Cn2c(=O)n(Cc3ccco3)c(=O)c3sc4ccccc4c32)cc1Cl	6.1%
CCC(=O)N1CCc2cc(Br)cc(S(=O)(=O)CCC(=O)N3CCN(c4ccc(F)cc4)CC3)c21	2.2%
O=S(=O)(c1cccc(F)c1)N1CCN(c2nc(-c3cccs3)nc3ccccc23)CC1	0.0%
COc1cn(CC(=O)Nc2ccc(C)cc2)c(CN2CCCCC2)cc1=O	-1.5%
N#Cc1nc(N(c2ccccc2)c2ccccc2)nc(-n2cccc2)n1	1.3%
Cc1ccc(Cn2cnc3nc4c(cc3c2=O)CCCC4)cc1	-2.0%
CCCCOc1ccc(CC(=O)N(C)OC)cc1	1.6%
CC(C)c1ccc(/C=C2\C=Cc3ccccc32)cc1	1.0%
COc1ccc2cc(CNc3ccc(C)cc3)c(=O)n(CC(=O)Nc3ccc(OC)c(Cl)c3)c2c1	-0.4%
COc1ccc(CNC(=O)c2cc3c(=O)n(C)c4ccccc4c3n2C)cc1	1.7%
CCN(CC)CCNC(=O)c1c(C)oc2ncn(C)c(=O)c12	0.1%
COCCCN1C(=O)c2[nH]nc(-c3cc(C)ccc3O)c2C1c1ccc(F)cc1 (stereo unspecified)	0.5%
CCCCOC(=O)c1ccc(NC(=O)CSc2nc3c(c(=O)[nH]2)CCC3)cc1	1.4%
CC(C)c1nn2c(=O)cc(COC(=O)c3cccc(NC(=O)c4ccccc4F)c3)nc2s1	-1.2%
CCOc1ccc(Nc2sc(C(=O)c3ccc(F)cc3)c(N)c2S(=O)(=O)c2ccc(C)cc2)cc1	-0.5%
COc1ccc(OC)c(CCNC(=O)c2c(C)oc3ncn(CC(C)C)c(=O)c23)c1	4.1%
COc1ccc(CN(Cc2ccccc2)C(=O)c2cccc(C#N)c2)cc1COc1ccc(NC(C)=O)cc1	1.1%
CCOc1ccc(-n2c(=O)c3c(C)c(C)sc3n(CC(=O)C(C)(C)C)c2=O)cc1	1.2%
CCOC(=O)c1cccc(NC(=O)c2cc(CN3CCOCC3)on2)c1	0.1%
CCOC(=O)c1c(N)n(-c2cccc(OC)c2)c2nc3ccccc3nc12	-0.8%
Cc1ccc(C)c(N2CCN(C(=O)CCn3c(=O)c4cccn4c4cccnc43)CC2)c1	3.1%
CCOc1ccc(-c2cc3c(=O)n(CC(=O)NCc4ccc(OC)cc4)ccn3n2)cc1	2.4%
CCOC(=O)c1cccc(NC(=O)Cn2cnc3nc4c(cc3c2=O)CCCC4)c1	1.3%
Cc1ccc(Nc2c(-c3ccncc3)nc3ccc(C)cn23)cc1	-0.4%
Cc1ccc2nc(N(Cc3cccnc3)C(=O)CCOc3ccccc3)sc2c1	7.6%
CCc1ccc(-n2nc(C)c3c(C)cc(=O)n(CC(=O)Nc4ccc(C)c(F)c4)c32)cc1	0.7%
O=C(C1CCC(CNS(=O)(=O)c2ccc(Br)s2)CC1)N1CCN(c2ccc(F)cc2)CC1 (stereo unspecified)	-1.3%
COc1ccc(CNC(=O)c2cc3cccc4c3n2CC(C)S4)c(OC)c1 (stereo unspecified)	0.5%
CCCCN(CC)CCNC(=O)Cn1c(=O)c2cccn2c2cccnc21	-1.4%
CCc1ccc(Nc2nc3c(S(=O)(=O)c4ccc(C)cc4)nnn3c3ccsc23)cc1	0.2%
CCOc1ccccc1NC(=O)CC1C(=O)NCCN1C(=O)c1ccc(F)cc1 (stereo unspecified)	-0.3%
NC(=O)CSc1nc2ccc(NC(=O)COc3ccccc3)cc2s1	-0.3%
O=C(Nc1cccc(Cl)c1)C1CCCN(c2nn3cc(-c4ccc(F)cc4)nc3s2)C1 (stereo unspecified)	0.7%
Cc1cc(SCC(=O)Nc2ccc(Cl)cc2)nc2ccccc12	8.8%
O=C(c1ccc2c(c1)N(Cc1cccc(Cl)c1)C(=O)c1ccccc1S2(=O)=O)N1CCN(c2cccc(C(F)(F)F)c2)CC1	1.6%
Cc1ccccc1OCC(=O)NCC(c1ccc(Cl)cc1)N1CCOCC1 (stereo unspecified)	0.3%

High-throughput results from PubChem.
